StopGo reporter: FMDV 2A StopGo reporter, luciferase signal | 1.2% of 410,000 active | human cells with a luciferase reporter of 2A StopGo recoding; control for the full effect not named in the record | Potency, µM (highest dose often 57.9 µM), without a hit: top-dose signal change, negative = less light | AID 1159524; active = well fitted falling curve with a large enough effect; inconclusive = small, poorly fitted or top-dose-only effect; inactive = no such curve, though single readings can be large or run the other way; tested in HEK293T cells; further: on the % scale 0 is the no-effect control and ±100 the full control effect; nearly all actives have a fitted effect of over 45% in size; luciferase light after 4 h
Lassa entry inh: blocks Lassa virus binding to or entry into cells; Lassa virus pseudotype entry inhibition, cell reporter; control for the full effect not named in the record; Potency, µM (titrated, usually from 37.9 µM), for the others: at the highest dose activity change, negative = inhibition, actives largely listed as inhibitors; 1.2% of 300,000 active; AID 540256; active means well fitted inhibition curve with a large enough effect; inconclusive means small, poorly fitted or top-dose-only effect, or effect the other way; inactive means flat fitted curve, though single readings scatter; tested in HEK293 cells; further: on the % scale 0 is the no-effect control and ±100 the full control effect; nearly all actives have a fitted effect of over 50% in size; luciferase read-out
Marburg entry inh: Marburg virus entry inhibition | Marburg virus pseudotyped entry inhibition, cell reporter; control for the full effect not named in the record; about a third of the inactives were read at about 46 µM | Potency, µM (highest dose often 37.8 µM), inactives show top-dose activity change, negative = inhibition, usual class: inhibitors | 1.8% of 300,000 active | AID 540276; active = well fitted inhibition curve with a large enough effect; inconclusive = small, poorly fitted or top-dose-only effect, or effect the other way; inactive = flat fitted curve, though single readings scatter; tested in HEK293 cells; about a fifth of its hits are not listed in these tables; further: on the % scale 0 is the no-effect control and ±100 the full control effect; luciferase read-out
SARS PLP yeast: inhibitors of SARS-CoV papain-like protease in yeast; Potency, µM (titrated, usually from 32.9 µM), for the others: at the highest dose activity, positive = growth rescue; 0.19% of 330,000 active; S. cerevisiae expressing SARS-CoV PLpro, growth rescue; control for the full effect not named in the record; further: 0% is about no effect; nearly all actives have a fitted effect of over 55% in size; growth read by luminescence after 48 h
Cruzain Triton: inhibitors of Trypanosoma cruzi cruzain with detergent; P25779; purified cruzain, Z-FR-AMC fluorescence, 0.01% Triton; Potency, µM, for the others: max response, negative = inhibition, usual class: inhibitors; 0.43% of 200,000 active; AID 1478; active means well fitted curve in the direction sought with a large enough effect; inconclusive means small, poorly fitted or top-dose-only effect, or another doubt; inactive means no such curve, though single readings can be large; an effect the other way counts as inactive or inconclusive;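 further: plate controls were neutral wells for no effect and buffer without enzyme for full effect; nearly all actives have a fitted effect of over 40% in size; top concentration of the series not given in the record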
Target sequence (P25779 123-467 limits assumed): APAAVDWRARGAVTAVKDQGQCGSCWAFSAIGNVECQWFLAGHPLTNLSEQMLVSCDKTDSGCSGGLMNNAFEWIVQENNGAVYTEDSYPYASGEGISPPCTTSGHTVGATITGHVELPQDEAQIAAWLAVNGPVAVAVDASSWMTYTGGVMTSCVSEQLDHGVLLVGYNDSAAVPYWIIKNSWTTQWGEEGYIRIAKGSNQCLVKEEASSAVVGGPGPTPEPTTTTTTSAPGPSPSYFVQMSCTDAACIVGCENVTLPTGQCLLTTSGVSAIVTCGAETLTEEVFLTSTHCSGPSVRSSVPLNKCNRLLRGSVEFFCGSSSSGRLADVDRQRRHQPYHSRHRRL
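Cysteine protease activity tested under reducing, mildly acidic conditions (100 mM sodium acetate pH 5.5, 5 mM DTT) plus 0.01% Triton X-100. Cruzain 1.5 nM; substrate Z-FR-AMC 2 uM; 15 min compound preincubation at room temperature.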
Cruzain noTriton: cruzain (T. cruzi) inhibition without detergent; P25779; purified cruzain, Z-FR-AMC fluorescence, no detergent; Potency, µM, for inactives: max response, negative = inhibition, most hits filed as inhibitors; 2.3% of 200,000 active; AID 1476; active means well fitted curve in the direction sought with a large enough effect; inconclusive means small, poorly fitted or top-dose-only effect, or another doubt; inactive means no such curve, though single readings can be large; an effect the other way counts as inactive or inconclusive;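 further: plate controls were enzyme without inhibitor for no effect and buffer without enzyme for full effect; nearly all actives have a fitted effect of over 40% in size; top concentration of the series not given in the record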
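Purified cruzain at 1.5 nM, pre-incubated 15 min with compound at room temperature in 100 mM sodium acetate pH 5.5, 5 mM DTT, 0.00005% Triton X-100. Reaction started with 2 uM Z-FR-AMC; AMC fluorescence increase over 60 s gives rate.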
RE007 growth inh: less growth of the S. pombe RE007 Vpr strain. S. pombe RE007 Vpr strain, BacTiter-Glo ATP luminescence, 24 h; control for the full effect not named in the record. Potency, µM (highest dose often 92.2 µM), inactives show top-dose activity change, negative = less growth. 0.21% of 360,000 active. AID 651644; active = well fitted falling curve with a large enough effect; inconclusive = small, poorly fitted or top-dose-only effect; inactive = no such curve, though single readings can be large or run the other way;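 further: on the % scale 0 is the no-effect control and ±100 the full control effect; nearly all actives have a fitted effect of over 50% in size; the assay follows cell death caused by Vpr and the record does not say whether a fall means rescue or toxicity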
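Fission yeast RE007 carrying one integrated HIV-1 vpr copy, seeded at OD 0.01 in PMG+AL medium with 23 nL pinned compound. Grown 24 h at 30 degrees; viability read by BacTiter-Glo luminescence after 5 min.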
NS1 function inh: inhibitors of influenza NS1 protein function; 0.4% of 270,000 active; S. cerevisiae slowed by influenza A NS1, growth recovery by OD600; Potency, µM (titrated, usually from 46.1 µM), inactives show at the top dose activity, positive = more growth; further: actives are rising curves; nearly all actives have a fitted effect of over 50% in size
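Read-out: OD600 growth recovery of NS1-expressing budding yeast. Cells grown overnight at 30C in -URA glucose medium, washed, resuspended and diluted 1:100 in 2% galactose assay medium, pH 6.0. Same strain lacking NS1 served as positive control.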
* marks the source's active call; other numbers are inactive results; ? = inconclusive; . = no result given; & = joins results of further samples; [ ] = dose if it differs, or a comment. Unless noted, the call rests on the fitted dose curve; in most records, active means well fitted rising curve with a large enough effect; inconclusive means small, poorly fitted or top-dose-only effect; inactive means no such curve, though single readings can be large or run the other way. Potency means the concentration at half of the fitted maximal effect. Hits appear at their usual frequency. Share with any hit: about 4.7%.

Compound,StopGo reporter,Lassa entry inh,Marburg entry inh,SARS PLP yeast,Cruzain Triton,Cruzain noTriton,RE007 growth inh,NS1 function inh
O=C(Nc1cc(Cl)c(Cl)cc1Cl)c1cccnc1,0%,.,.,-2%,.,.,2%,-3%
COc1cccc(C(=O)NN=C2CCCC2)c1,-5%,-7%[46.1 µM],22%[46.1 µM],-4%,.,.,11%,5%
CC1CCc2nn(CC(=O)N3CCN(C(=O)c4ccco4)CC3)cc2C1 (stereo not given),-15%,.,.,-25%,-3.0%,-6%,-12%,-3%
O=C(c1c(O)c2ccccc2oc1=O)C1CCC1,-4%,14%,6%,-24%,0.2%,-5%,?,-244%
COc1ccc(NC(=O)/C=N/O)cc1,18%,2%,-1%,0%,.,.,-2%,.
O=C(NCc1ccccc1)c1cc2sccc2n1Cc1ccc(F)cc1,0%,-6%[46.1 µM],?,.,-3.4%,-14%,.,.
O=C(COc1ccc2ccc(=O)oc2c1)N1CCN(C(=O)C2COc3ccccc3O2)CC1 (stereo not given),-25%,-20%[46.1 µM],-22%[46.1 µM],4%,.,.,-1%,3%
COc1ccccc1OCCCn1cc(C#N)c2ccccc21,-23%,11%,?,-7%,-5.3%,-5%,2%,2%
O=C(O)CCCNC(=O)c1cccc(C(=O)NCCCC(=O)O)n1,-18%,9%,1%,12%,-0.4%,0%,-4%,4%
CN(C(=O)COC(=O)c1cc(S(=O)(=O)N2CCOCC2)c(Cl)cc1Cl)C1CCS(=O)(=O)C1 (stereo not given),-5%,1%,?,-1%,.,.,-5%,4%
Cc1nc2cccc(C(=O)Oc3ccc([N+](=O)[O-])cc3)c2o1,-21%,?,-10%[46.1 µM],-3%,.,.,?,.
O=C(CSc1nnc(CNC(=O)C23CC4CC(CC(C4)C2)C3)n1-c1ccccc1)Nc1ccc(F)cc1,?,-26%,?,-3%,-0.1%,?,-5%,9%
FC(F)(F)c1cc(-c2cccs2)n[nH]1,-17%,-1%,-2%[46.1 µM],-3%,-3.0%,0%,-30%,0%
Cn1c(=O)c2c(nc(-n3ccnc3)n2Cc2ccccc2)n(C)c1=O,-27%,4%,8%,-1%,0.6%,-9%,16%,-2%
COC(=O)c1c(N)n(-c2ccc(N3CCOCC3)cc2)c2nc3ccccc3nc12,.,.,.,2%,-0.9%,9%,.,2%
COc1cc(C(c2c(O)c3ccccc3oc2=O)c2c(C)n(C)n(-c3ccccc3)c2=O)ccc1OCC(=O)O (stereo not given),-3%,8%[46.1 µM],25%[46.1 µM],.,-7.2%,?,.,.
Cc1ccc(C(=O)n2nc(C)c(S(=O)(=O)N3CCOCC3)c2C)cc1,-7%,16%[46.1 µM],.,.,0.4%,-1%,.,.
CCc1ccc(NC(=O)CC2C(=O)N(c3ccc(C)cc3)C(=O)N2C2CCCC2)cc1 (stereo not given),8%,-2%[46.1 µM],-17%[46.1 µM],.,-5.5%,3%,.,.
CCC1(CC)NC(=O)N(CC(=O)OCC(=O)c2cc(C)c(C)cc2C)C1=O,-11%,-7%,2%,4%,.,.,8%,.
COc1cc2[nH]c(=S)nc(NCCc3ccc(C)cc3)c2cc1OC,0%,-12%,-16%,0%,.,.,3%,.
Cc1ccc(NC(=S)NCCSc2ccc(Cl)cc2)c(C)c1,-16%,0%,-29%,7%,2.3%,7%,?,-56%
CCOC(=O)c1cnc2ccc(Cl)cc2c1N1CCN(C)CC1,.,12%,-15%,-4%,-3.2%,-1%,-21%,3%
N#CC1=C(N)OC2=C(CN(Cc3ccccc3)C/C2=C\c2cccnc2)C1c1cccnc1 (stereo not given),?,-1%,-17%,0%,0.6%,-9%,17%,8%
CS(=O)(=O)c1ccc(C(=O)OCC(=O)NC(=O)C2COc3ccccc3O2)cc1[N+](=O)[O-] (stereo not given),0%,-12%,-26%,10%,.,.,-2%,.
Cn1c(COc2ccc(Cl)cc2)nnc1SCc1ncc(-c2ccccc2)o1,?,-29%,-7%,-4%,-8.5%,?,5%,-52%
Cc1cc(C)cc(NC(=O)CN2C(=O)COc3ccc(S(=O)(=O)Nc4ccccc4)cc32)c1,-2%,-11%[46.1 µM],.,.,-9.2%,-16%,.,.
CCOc1ccc(/C=N/OCC(=O)NC(c2ccccc2)c2ccccc2)cc1,?,?,?,10%,-4.3%,3%,19%,-2%
Cc1ccc(CNC(=O)CN2CCN(c3ccc(F)cc3)CC2)cc1,0%,?,1%[46.1 µM],0%,.,.,-12%,-22%
O=C(NC(=S)Nc1cccnc1Cl)c1ccc(Cl)cc1,36%[activator],?,8%[46.1 µM],-10%,.,.,?,-44%
CC(=O)Nc1ccc(SCC(=O)c2ccc(Br)s2)cc1,33%,10%,-2%[46.1 µM],0%,.,.,-16%,-37%
O=S(=O)(c1ccccc1)n1nc(-c2ccco2)nc1NCc1ccccc1,43%[activator],10%[46.1 µM],?,.,-6.5%,-8%,.,.
Cc1ccc(C(=O)O/N=C(\N)c2ccccn2)c(Cl)c1,10µM*,.,.,-18%,.,.,13µM*,-99%
CCC(C)[C@H]1CN=C(N)N1CCc1cc(C(F)(F)F)cc(C(F)(F)F)c1 (stereo not given in full),-29%,.,.,0%,.,.,-1%,-3%
CCCCOc1ccc(C(C)(O)CCN2CCOCC2)cc1 (stereo not given),0%,2%,?,-2%,4.8%,5%,-2%,-9%
CN(C)C(=S)SCC(=O)Nc1ccc(Cl)cc1Cl,31%[activator],11%,-1%,-9%,-7.3%,-3%,?,-22%
Cc1ccc(-n2nnnc2SCC(=O)N2CC(=O)Nc3ccccc32)cc1,?,-10%,12%,-16%,1.7%,-2%,-11%,-9%
Cc1ccccc1CNC(=O)C(=O)NCCC1CCCCN1S(=O)(=O)c1ccccc1 (stereo not given),-23%,-12%,?,5%,.,.,8%,.
CC1CCN(C(=O)Cn2c(=O)n(CCCC(=O)NCc3ccco3)c(=O)c3sccc32)CC1,5%,?,?,-5%,.,.,3%,10%
O=C(CC(C(=O)O)c1c[nH]c2ccccc12)c1ccccc1 (stereo not given),27%,?,-2%[46.1 µM],1%,.,.,-7%,?
O=C(Nc1nc(-c2ccc([N+](=O)[O-])cc2)cs1)c1c(F)cccc1F,-17%,?,-17%,0%,.,.,1%,13%
CCN(CC)C(=O)c1ccc(NC(=O)c2cccc(C(F)(F)F)c2)cc1,-1%,-3%[46.1 µM],3%[46.1 µM],2%,.,.,9%,.
O=C(c1ccccc1)C1N=NCC1c1ccc(Cl)cc1 (stereo not given),-25%,-5%[46.1 µM],-18%[46.1 µM],.,.,.,20%,.
Cc1cc(C)nc(N/N=C/c2ccccc2OCc2cccc(Br)c2)n1,?,?,?,-9%,-3.3%,5%,11%,-33%
CN(CC(=O)Nc1ccc(F)cc1)C(=O)c1cccc(S(=O)(=O)N2CCN(c3ccccc3)CC2)c1,?,-21%,?,7%,.,.,-22%,-26%
O=C1CC(=O)N(Cc2cccs2)C(=O)N1,-15%,-4%,-4%,13%,7.3%,4%,-15%,19%
CCc1ccc2c(c1)cc(CN(Cc1ccco1)C(C)=O)c1nnnn12,-15%,?,22%[46.1 µM],0%,.,.,1%,.
COc1ccc(CNc2ncnc3cc(OC)c(OC)cc23)cc1,-25%,-1%,?,3%,-3.7%,-23%,2%,1%
Cc1cc(=O)cc(C)n1-c1ccc2c(c1)nc(C)n2-c1ccccc1,.,-10%,-17%,-5%,-1.2%,9%,0%,?
CC(=O)C1=C(O)C(=O)N(CCc2c[nH]c3ccccc23)C1c1ccccc1 (stereo not given),12%,.,.,-1%,.,.,-6%,0%
Cc1sc2nc(CN3CCCC3)nc(N3CCN(C(=O)c4ccco4)CC3)c2c1C,-10%,8%[46.1 µM],?,0%,.,.,-24%,.
CCOC(=O)Cc1[nH]nc2c1C(Cc1ccccc1)C(C#N)=C(N)O2 (stereo not given),-11%,?,-29%[46.1 µM],0%,.,.,11%,4%
Cc1ccc(COc2ccccc2-c2cc(C(=O)N/N=C/c3cccnc3)[nH]n2)cc1,?,8.9µM*,?,-1%,.,.,-6%,8%
CC(C)C(=O)O/N=C(\N)c1ccc(Oc2ccc(Cl)cc2)c([N+](=O)[O-])c1,3%,?,-30%[14.2 µM],-2%,.,.,-1%,1%
Cc1csc(C(=O)O)c1NC(=O)c1c(Cl)cccc1Cl,-15%,.,.,2%,.,.,3%,-5%
CCOc1ccc(CN(C(=O)c2ccccn2)c2ccc(OC)c(Cl)c2)cc1,45%[activator],?,-29%[46.1 µM],-3%,.,.,11%,-2%
COc1ccc(Cn2ccnc2)cc1Br,2%,-6%,-6%&-6%,.,15%,-4%,0%,-4%
Cc1cc(C)n(-c2cccc(CN3CCC(CO)(Cc4ccccc4)CC3)c2)n1,?,5%[46.1 µM],?,0%,.,.,-20%,-3%
CSc1nc(N)n2nc(-c3ccc(Cl)cc3)cc2n1,62%[activator],?,?,-3%,.,.,-13%,-5%
COc1cc(C(=O)NC2CC3CCCC(C2)N3C2CC2)cc(OC)c1OC (stereo not given),-2%,-13%,?,-7%,3.2%,-5%,16%,-5%
CCCCC(=O)OCc1nc2ccccc2s1,65%[activator],-1%,0%,2%,.,.,-10%,-5%

Further structures
Compound,StopGo reporter,Lassa entry inh,Marburg entry inh,SARS PLP yeast,Cruzain Triton,Cruzain noTriton,RE007 growth inh,NS1 function inh
COc1cccc(-c2nc(CS(=O)(=O)CC(=O)Nc3cc(F)ccc3F)c(C)o2)c1,-19%&-24%,-29%[46.1 µM],?,3%,-4.1%,-3%,-2%,6%
O=C(/C=C/c1ccccc1)c1ccccc1O,?,-11%,6%[14.2 µM],-7%,3.5%&-1.1%,-2%&9%,-28%,-34%
O=C1Nc2ccc(Br)cc2/C1=N/N=C/C1=C(N2CCOCC2)C(=C\c2ccccc2)/CC1,?,7%,-1%,-1%,-3.4%,12%,-3%,17%
CCc1ccc(CCN2C(=O)c3ccccc3C2=O)nc1,13%,7%,6%[46.1 µM],0%,.,.,-7%,0%

Screening results as filed in PubChem BioAssay.
